# From PubChem
# S aureus helic: inhibitors of S. aureus replicative helicase, primary screen, biochemical, fluorescence unwinding readout; replicative DNA helicase (DnaC/DnaB), Staphylococcus aureus; purified S. aureus helicase, fluorescence unwinding assay; about half of the hits fall short of the stated cut; inhibition, %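 (tested at about 80 µM)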; hit rate 0.05% among 120,000; AID 485395, 2010;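 active means both duplicates at 50% or more, or one of them with a favoured structure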;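 further: 0% = mean of negative control wells and 100% = mean of positive control wells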
# MgrA-DNA mod: S. aureus MgrA activity modulators, primary screen, biochemical, S. aureus Newman, fluorescence polarization | hit rate 0.13% among 84,000 | inhibition, %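 (about 10 µg/mL by stock and volumes)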 | MgrA-DNA binding;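 active means above 50% in either of two replicates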;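 further: 0% = protein plus DNA without compound and 100% = DNA alone without protein; higher means less MgrA bound to DNA so lower polarization; one replicate is shown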
# An asterisk follows results filed as active; nt = no result given. These rows are one share of the data; the hit share may differ from the screen's.
SMILES,S aureus helic,MgrA-DNA mod
CC1(C)CCC(C)(C)NC(SCC(=O)c2ccc(Cl)cc2)=N1,nt,1.7
Cn1nc(-c2ccc(C(=O)O)cc2)c2ccccc2c1=O,17,nt
Cc1ccc2cc(CCNC(=O)c3ccc(S(=O)(=O)N4CCOCC4)cc3)c(=O)[nH]c2c1C,15,nt
CC(CC(=O)O)NC(=O)c1ccc(OC(F)F)cc1 (stereo unspecified),-5,nt
COC(=O)c1ccc(/C=N/n2cc(-c3ccccc3)[nH]c2=S)cc1,-31,nt
COCCNC(=O)c1cc(S(=O)(=O)N2CCOCC2)cn1C,-16,nt
NC(=O)CCNC(=O)C(c1ccccc1)c1ccccc1,-1,0.1
C=C(C)C1CC=C(C)C(=O)C1 (stereo unspecified),-16,nt
COc1cc(/C=C2/SC(=Nc3ccccc3)NC2=O)cc(OC)c1O,nt,1.0
CNC(=S)NNC(=O)c1ccco1,nt,-2.8
O=C(CCOc1ccccc1F)N1CCN(c2ccccc2O)CC1,2,-0.8
CC(C)(C)c1csc(NC(=O)c2ccncc2)n1,-25,4.3
CC(=O)NC1=CC(=O)CC(C)(C)C1,nt,-4.2
O=c1c(Cl)c(N2CCCC2)cnn1-c1ccccc1,-14,0.6
CCCCC/C=C\C[C@@H](O)/C=C/C=C\C/C=C\CCCC(=O)O,nt,3.0

# One compound at a time, from the list above. Order of screens: S aureus helic	MgrA-DNA mod
# COc1cc(/C=C2/SC(=Nc3ccccc3)NC2=O)cc(OC)c1O is entered as nt	1.0
# CNC(=S)NNC(=O)c1ccco1 is entered as nt	-2.8

# (continued)
SMILES,S aureus helic,MgrA-DNA mod
O=C(Nc1ccc2snnc2c1)NC1CC1,-4,nt
Cc1ccc2c(c1)NC(C)c1ccccc1O2 (stereo unspecified),-10,nt
CCC(OC(=O)CN1C(=O)c2ccccc2C1=O)C(=O)Nc1sc2c(c1C#N)CCCC2 (stereo unspecified),11,nt
CCCN1CCN(CCCNC(=S)Nc2ccc(F)cc2)CC1,4,-2.4
C=CCc1nc2ccccc2c(=O)n1CC=C,7,-2.3
CSCCC(C(=O)O)N1C(=O)/C(=C/c2cccnc2)SC1=S (stereo unspecified),-8,1.4
COC(=O)C(Cc1ccccc1)NC(=O)c1ccc2c(c1)C(=O)N(Cc1ccco1)C2=O (stereo unspecified),14,nt
N#Cc1ccsc1NC(=O)Cc1cccs1,-19,nt
OCc1ccccc1-c1ccccc1CO,nt,-1.0
COc1ccc(CNC(=O)Cn2c(SC)nc3ccccc32)cc1,3,-0.6
COC(=O)c1cc(CSc2nnc(NCc3ccccc3)s2)oc1C,-11,nt
CN1CCN(C(CNC(=O)c2ccco2)c2ccc3c(c2)OCO3)CC1 (stereo unspecified),-12,nt
Cc1ccc(S(=O)(=O)NCc2nc3ccccc3c(=O)n2N)cc1,5,1.1
Cc1ccc(C)c(S(=O)(=O)NCCOc2nc(NC(C)C)nc(NC(C)C)n2)c1,nt,3.6
C/C(=N\NC(N)=S)c1ccc(O)cc1,6,nt
CCOCC(=O)NC12CC3CC(CC(C3)C1)C2,16,nt
CCc1ccc(C(=O)Cn2c(N3CCOCC3)nc3ccccc32)cc1,-8,2.1
O=C(O)c1cccc(Oc2ccccc2)c1,-34,0.7
Nc1ccc(C(=O)N/N=C/c2ccccc2)cc1,3,-0.2
CCN(CC)CC(O)COC1CCC(C(C)(C)C)CC1 (stereo unspecified),17,nt
CC(C)CN1C(=O)c2ccc(Br)cc2C1=O,8,-0.9
CCOC(=O)C1=C(O)/C(=C/c2ccco2)SC1=Nc1ccc(C)cc1,36,nt
CCCOc1ccccc1NC(=O)/C=C/C(N)=O,20,1.8
Cc1ccc(Cl)cc1N1CCN(C(=O)c2ccc3noc(-c4ccccc4)c3c2)CC1,4,nt
O=c1[nH]c(-c2ccccc2)nc2c1oc1ccccc12,-6,nt
CCOC(=O)Cn1c(=NC(=O)C2COc3ccccc3O2)sc2cc(S(N)(=O)=O)ccc21 (stereo unspecified),4,nt
CN(C(=O)COC(=O)c1cc(F)c(F)cc1Cl)c1ccccc1,16,-1.3
Cc1sc2ccccc2[n+]1CCCO,18,0.1
O=S(=O)(c1ccc2ccccc2c1)N1CCN(c2ccc(F)cc2)CC1,-24,nt
N#CCS(=O)(=O)c1ccc(C(F)(F)F)cn1,nt,-1.6

# An excerpt of these results, with values ahead of the structure:
S aureus helic	MgrA-DNA mod	compound
36	nt	CCOC(=O)C1=C(O)/C(=C/c2ccco2)SC1=Nc1ccc(C)cc1
20	1.8	CCCOc1ccccc1NC(=O)/C=C/C(N)=O
4	nt	Cc1ccc(Cl)cc1N1CCN(C(=O)c2ccc3noc(-c4ccccc4)c3c2)CC1

# The listing continues.
SMILES,S aureus helic,MgrA-DNA mod
COc1ccccc1NC(=O)C(C#N)Cc1ccc(C)cc1 (stereo unspecified),2,1.1
COc1ccccc1CC(=O)Nc1ccc(-c2nnc(-c3ccccc3)o2)cc1,5,-0.7
CC1CCCC1OP1(=O)CC=CC1 (stereo unspecified),-6,nt
O=c1c2c3c(sc2ncn1/N=C/c1cccnc1)CCCC3,9,nt
COc1ccc(OCC(O)CNS(=O)(=O)c2cccc(Cl)c2)cc1 (stereo unspecified),-3,nt
Cc1cc(C2N=C(N)Nc3nc4ccccc4n32)c(C)n1-c1cc(C(F)(F)F)ccc1N1CCOCC1 (stereo unspecified),23,nt
NC(=O)C1CCN(CC2CC3C=CC2C3)CC1 (stereo unspecified),7,-2.8
O=C(CN1CCN(CCCc2c[nH]c3ccc(F)cc23)CC1)c1ccc(F)cc1,-21,nt
CC1CCCCN1C(=S)Nc1ccccc1 (stereo unspecified),-6,1.6
COc1cc(/C=C(\C#N)C(=O)Nc2ccc(S(N)(=O)=O)cc2)ccc1O,-13,0.8
Cn1c(=O)cc(OCC(=O)NCCCN2CCCC2)c2ccccc21,10,2.9
C=CCn1c(CCCNC(=O)c2ccccc2)nc2ccccc21,0,nt
O=C(O)c1ccc2nc3ccsc3c(=O)n2c1,nt,-7.8
Fc1ccc(-c2cc(C(F)(F)F)nc(NC3CCCC3)n2)cc1,2,nt
COCc1cc(=O)[nH]c2cc(NC(=O)C(F)(F)F)c(C)cc12,nt,0.0

# 3 entries already listed, ordered by the value under MgrA-DNA mod, ascending.
canonical_smiles	MgrA-DNA mod
NC(=O)CCNC(=O)C(c1ccccc1)c1ccccc1	0.1
O=c1c(Cl)c(N2CCCC2)cnn1-c1ccccc1	0.6
CCCOc1ccccc1NC(=O)/C=C/C(N)=O	1.8

# Later entries:
SMILES,S aureus helic,MgrA-DNA mod
O=C(COc1ccccc1)NCc1ccccc1,5,-1.9
Cc1ccc(CCSc2ccc(Cl)c(Cl)c2)cn1,10,0.6
CCC(=O)N(C)C1CCS(=O)(=O)C1 (stereo unspecified),5,nt
CN(c1ccc(C(=O)NN=C2CCCC2)cc1)S(=O)(=O)c1ccccc1,-30,nt
CC1=NN(c2ccc(Br)cc2)C(=O)/C1=C\c1ccc(-c2cccc([N+](=O)[O-])c2)o1,nt,-3.8
CSc1ncccc1C(=O)OCC(=O)N(C)C,-9,nt
CCCc1cc2ccccc2o1,-12,5.0
CN1/C(=C\C(=O)CC(N)=O)C(C)(C)c2ccccc21,-44,nt
CC1CC1C(=O)OCC(=O)NCc1ccc(Cl)cc1Cl (stereo unspecified),9,0.4
COc1ccc(CCNC(=O)C2NC(=O)CC2c2ccccc2)cc1OC (stereo unspecified),10,nt
O=C1C=C(NCCc2ccccc2)C2(CCCCC2)O1,5,nt
Cc1cc(=O)[nH]c2c1c(C)nn2C1CCCC1,-2,-1.6
CCCCn1c(-c2ccccc2)nc(=S)c2c1CCCC2,3,0.5
Cc1ccc(OC(C)C(=O)O)cc1 (stereo unspecified),11,-0.6
Cc1cc(NC(=O)/C(=C/c2cccs2)c2ccsc2)no1,nt,-1.3
CC1(C)COC(c2ccccc2)=N1,0,nt
Cc1nc2ncnn2c(C)c1CCC(=O)N(C)CC(=O)Nc1ccc(OC(F)(F)F)cc1,-11,nt
Cc1ccc(C(=O)c2ccccc2C(=O)O)s1,nt,-0.1
CCN1CCC2(CC1)NCCc1c2[nH]c2ccc(OC)cc12,-5,nt
CCOC(=O)C1CCCN(CCC(=O)Nc2ccc(Br)c(C)c2)C1 (stereo unspecified),-1,0.0
N#C/C(C(N)=O)=C1/SC=C(c2ccccc2)N1Cc1ccccc1,nt,0.0
COc1ccc(CN2C(=O)CC(C(=O)Nc3ccccc3OC)SC2=Nc2ccccc2)cc1 (stereo unspecified),nt,1.7
COc1ccc(S(=O)(=O)N2CCCN(S(=O)(=O)c3ccc(OC)cc3C)CC2)c(C)c1,21,nt
O=C(CCN1C(=O)/C(=C/c2ccc(F)cc2)SC1=S)Nc1ncc(Cc2ccc(Cl)cc2)s1,nt,-2.0
COc1cc(C2NC(=O)N(C)C(C)=C2C(=O)OCc2ccccc2)cc(Cl)c1O (stereo unspecified),nt,-1.8
O=C1CCC(C(=O)OCC(=O)N(C2CCCCC2)C2CCCCC2)=NN1,10,nt
C=CCn1ccc2c(OCC(=O)c3ccccc3)cccc2c1=O,9,nt
COC(=O)c1ccc(CSc2nnc(COc3ccccc3)o2)o1,7,2.6
C1=C2Nc3ccccc3N=C(c3ccccc3)C2NN1c1ccccc1 (stereo unspecified),-12,nt
OCCN1CCN(c2ncnc3sc(-c4ccccc4)cc23)CC1,27,nt
NC(=O)COc1ccc(Br)cc1,9,0.1
COc1ccc(S(=O)(=O)Nc2ccc3c(c2)n(C)c(=O)n3C)cc1C(=O)N1CCCCCC1,-19,0.8
COc1ccc(N2CCN(CC(NS(=O)(=O)c3ccccc3)c3ccccc3)CC2)cc1 (stereo unspecified),18,nt
CCOc1ccc(N(CC)C(=S)Nc2ccc3nc(N4CCN(CC)CC4)cc(C)c3c2)cc1,-2,-1.4
COc1ccc(/C=C2/C(=O)C(C(C)C)=CCC2C)cc1 (stereo unspecified),9,0.9
COc1ccc(S(=O)(=O)c2c(N)n(CC3CCCO3)c3nc4ccccc4nc23)cc1 (stereo unspecified),-3,nt
CC1(C)CC(NCc2cc(Cl)c3c(c2)OCCCO3)CC(C)(C)N1,9,nt
CC1=Cc2nc3ccccc3n2C2(C(F)(F)F)OC(c3cccs3)=NN12 (stereo unspecified),-9,nt
NC1=NC(=O)CC(C(=O)NCc2ccccc2)S1 (stereo unspecified),9,0.0
C=CCn1c(Sc2ncnc3sccc23)nc2ccccc2c1=O,6,nt
O=C(CSCc1ccccc1)N1CCN(S(=O)(=O)c2cccs2)CC1,11,nt
CC(OC(=O)Cn1ccc(=O)[nH]c1=O)C(=O)c1ccc(C(C)(C)C)cc1 (stereo unspecified),-4,nt
c1ccc2[nH]c(C3CC3)nc2c1,19,nt
O=c1[nH]c2ccc(Cl)cc2c(-c2ccccc2)c1N1CCN(c2ccccn2)CC1,6,1.5
NC(=O)c1c(-c2ccc(Cl)cc2)csc1NC(=O)CCCc1ccccc1,18,0.0
O=c1c2ccccc2c(C=Nc2cccc(C(F)(F)F)c2)c(O)n1-c1ccccc1,6,1.6
CCN1CCCC1CNC(=O)C1c2cc(OC)c(OC)cc2C(=O)N(C)C1c1cccnc1 (stereo unspecified),13,nt
CN1CCCN(C(=O)c2cc(S(=O)(=O)N(C)c3ccc(F)cc3)ccc2Cl)CC1,-1,nt
O=S(=O)(NCCSc1nnc(-c2ccco2)n1-c1ccccc1)c1ccccc1,-5,3.5
Cc1ccc(C(=O)O/N=C(/c2nonc2N)N(C)C)cc1,7,0.1
FC(F)(F)c1ccnc(NCc2ccc3c(c2)OCO3)n1,nt,0.2
CC1CCN(C(=O)c2cc3c(=O)n4ccccc4nc3n2C)CC1,-20,nt
CC(C)(C)C(=O)Nc1c(Cl)cccc1OC(F)(F)F,nt,-3.2
O=C(O)Cc1c[nH][nH]c1=O,4,-7.7
c1ccc(CC2CCN(Cn3cnc4ccccc43)CC2)cc1,4,nt
COc1ccc(C=Nc2ccc(OC)cc2)cc1,nt,-1.6
COc1cc(CN2CCC(C(=O)N3CCN(c4ccccc4F)CC3)CC2)cc(OC)c1O,-4,-6.0
COc1ccc(/C=N/N2C(=O)c3ccccc3C2=O)cc1OC,-16,nt
N/C(=N\O)c1ccc2nonc2c1,nt,-1.5
CC(C)N(Cc1ccccc1)C(=O)c1cccs1,nt,-0.9

# Molecules listed so far that contain a tert-butyl group, in the order listed:
SMILES,S aureus helic,MgrA-DNA mod
CC(C)(C)c1csc(NC(=O)c2ccncc2)n1,-25,4.3
CCN(CC)CC(O)COC1CCC(C(C)(C)C)CC1 (stereo unspecified),17,nt
CC(OC(=O)Cn1ccc(=O)[nH]c1=O)C(=O)c1ccc(C(C)(C)C)cc1 (stereo unspecified),-4,nt
CC(C)(C)C(=O)Nc1c(Cl)cccc1OC(F)(F)F,nt,-3.2

# (listing goes on)
SMILES,S aureus helic,MgrA-DNA mod
CC1=CC(C)(C)Nc2ccccc21,-4,nt
O=C(NCCc1ccccc1)Nc1c[nH]c(=O)[nH]c1=O,30,nt
O=S(=O)(NCC1CC1)c1cc(Cl)cc(Cl)c1,nt,-0.5
CC(C)NC(=O)CSc1nncn1-c1ccccc1,9,nt
CC(C)(C)C(=O)OCC(N)=S,nt,8.0
CC1=C(C#N)C(c2ccc(CN3C(=O)c4ccccc4C3=O)o2)C2=C(CCCC2=O)N1 (stereo unspecified),-4,nt
COc1cc(/C=C2/N=C(c3ccc(Cl)c([N+](=O)[O-])c3)OC2=O)cc(OC)c1OC,nt,-0.9
CCC1c2ccc(C)n2CCN1C(=O)NC12CC3CC(CC(C3)C1)C2 (stereo unspecified),14,5.9
CC1(C)CC(=O)C=C(N)C1,4,nt
O=C(COC(=O)c1cccc(NC(=O)C(F)(F)F)c1)c1ccccc1,14,-0.7
N#Cc1c(NC(=O)c2cc(-c3cccs3)nc3ccccc23)oc(-c2ccco2)c1-c1ccco1,9,nt
N#CC(=C1SCCCS1)S(=O)(=O)c1cccs1,nt,0.1
Cc1ccc(C#N)c(SCC(=O)c2ccc(Br)cc2)n1,nt,2.1
COc1ccccc1-n1cnnc1SCC(N)=O,-3,nt
